HIV Env fusion: HIV envelope-mediated fusion inhibition; HeLa-JRFL Env/CEM21 cell fusion, luciferase; inhibition, % at 12.3 µM; 360,000 compounds, 1.1% hits;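 active = mean replicate inhibition score of at least 50 and every replicate individually at or above 50; inconclusive = only one of the two criteria met; inactive = mean below 50 and not all replicates reaching 50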;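 also: 0% = plate neutral controls and 100% = maraviroc near 300 nM; one replicate is shown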
Yeast UUG start: modulators of start codon recognition fidelity in yeast | S. cerevisiae UUG-firefly luciferase reporter, luminescence/redox ratio | activity score, % at 18.7 µM | 350,000 compounds, 0.13% hits;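 active = replicate mean at a twofold rise or more, about +100% in these data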;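 also: firefly luciferase made from a UUG start codon reports start codon fidelity; reporter light over untreated wells divided by growth signal over untreated wells; some hits fall short of that in this replicate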
Starred values were filed as active, the others as inactive; ? = inconclusive; [ ] = dose if it differs, or a comment. Not all compounds are listed, so the mix of outcomes need not match the whole.

HIV Env fusion	Yeast UUG start	SMILES
-26.2[16.7 µM]	8.1	C[C@H]1CCCCO[C@H](CN(C)Cc2ccncc2)[C@@H](C)CN([C@@H](C)CO)C(=O)c2cc(NC(=O)Nc3cccc4ccccc34)ccc2O1
9.5[16.7 µM]	-9.5	N#C[C@@H]1[C@H](c2ccc(C3=CCCC3)cc2)[C@@H](CO)N1C(=O)C1CCC1
12.6[16.7 µM]	-6.1	O=C(Nc1ccc2c(c1)[C@@H]1C[C@H](CC(=O)N3CCCCC3)O[C@@H](CO)[C@@H]1O2)c1cccnc1
23.4[16.7 µM]	-7.0	CCCC#Cc1ccc2c(c1)O[C@@H](CN(C)C(=O)c1ccccc1F)[C@H](C)CN([C@H](C)CO)S2(=O)=O
58.4*[16.7 µM]	-3.9	O=S(=O)(NCC[C@H]1CC[C@H](NS(=O)(=O)c2ccccc2Cl)[C@H](CO)O1)c1ccc(Cl)cc1
19.6[16.7 µM]	7.8	Cc1noc(C)c1S(=O)(=O)N(C)C[C@H]1Oc2ccc(NC(=O)NC3CCCCC3)cc2CC(=O)N([C@@H](C)CO)C[C@@H]1C
30.4	-6.2	O=C(CCN1C(=O)/C(=C\c2ccccc2F)SC1=S)N1CCOCC1
-22.6[16.7 µM]	18.9	Cc1noc(C)c1NC(=O)N(C)C[C@@H]1Oc2ccc(NC(=O)CCN3CCOCC3)cc2CC(=O)N([C@H](C)CO)C[C@@H]1C
3.3[16.7 µM]	17.6	C[C@H]1CN([C@@H](C)CO)C(=O)c2cc(NC(=O)Nc3ccccc3)ccc2O[C@@H]1CN(C)Cc1ccc(Oc2ccccc2)cc1
-5.6[16.7 µM]	3.8	COCC(=O)N(C)C[C@@H]1Oc2cc(C3=CCCCC3)ccc2S(=O)(=O)N([C@@H](C)CO)C[C@@H]1C
-11.6[16.7 µM]	0.9	COc1ccc(S(=O)(=O)Nc2ccc3c(c2)C(=O)N([C@H](C)CO)C[C@@H](C)[C@@H](CN(C)S(=O)(=O)c2cccs2)O3)cc1
5.2[16.7 µM]	1.7	C=CCN1C(=O)[C@]2(O[C@H](CCO)[C@@H]([Si](C)(C)c3ccc(OC)cc3)[C@@H]2C)c2cc(N3CCOC3=O)ccc21
19.0[16.7 µM]	16.5	CS(=O)(=O)Nc1ccc2c(c1)[C@H]1C[C@@H](CC(=O)NCc3ccncc3)O[C@@H](CO)[C@H]1O2
10.8[16.7 µM]	9.5	CC(C)NC(=O)N(C)C[C@H]1Oc2ncc(C#CCc3ccccc3)cc2C(=O)N([C@H](C)CO)C[C@H]1C
?	3.1	Cc1cc(C(=O)Nc2ccc3c(c2)C(=O)N(C)[C@H]2CC[C@H](CC(=O)O)O[C@@H]2CO3)no1
0.4[16.7 µM]	0.7	C[C@H](CO)N1C[C@H](C)[C@H](CN(C)C(=O)Nc2ccc(F)cc2)Oc2ncccc2C1=O
-14.7[16.7 µM]	-3.3	COC(=O)C[C@@H]1C=C[C@H](NC(=O)c2ccccc2)[C@H](CO)O1
14.8[16.7 µM]	-0.8	C[C@@H]1CN([C@@H](C)CO)S(=O)(=O)c2ccc(C#CCN(C)C)cc2O[C@H]1CN(C)C(=O)C1CCC1
1.8[16.7 µM]	-8.4	Cc1noc(C)c1NC(=O)Nc1ccc2c(c1)C(=O)N([C@H](C)CO)C[C@H](C)[C@@H](CN(C)CC1CCCCC1)O2
-2.4[16.7 µM]	-4.7	C[C@H](CO)N1C[C@H](C)[C@H](CN(C)C(=O)Nc2ccc(F)cc2)OCCCC[C@H](C)Oc2ccc(NS(=O)(=O)c3ccccc3)cc2C1=O
-10.7[16.7 µM]	22.6	Cc1noc(C)c1NC(=O)Nc1ccc2c(c1)CC(=O)N([C@@H](C)CO)C[C@H](C)[C@@H](CN(C)Cc1ccccc1)O2
7.0[16.7 µM]	-22.3	C[C@@H](NC(=O)C[C@@H]1C=C[C@@H](NC(=O)C2CCC2)[C@@H](CO)O1)c1ccccc1
-11.8[16.7 µM]	-2.5	C[C@H]1CN([C@@H](C)CO)S(=O)(=O)c2ccc(-c3ccccc3)cc2O[C@H]1CN(C)C
12.4[16.7 µM]	0.8	C[C@H]1CN([C@@H](C)CO)C(=O)c2cc(NS(=O)(=O)c3cccs3)ccc2O[C@H]1CN(C)S(=O)(=O)c1ccc(F)cc1
-6.5[16.7 µM]	-4.1	COCC(=O)N(C)C[C@H]1Oc2cc(C#CCC(C)C)ccc2S(=O)(=O)N([C@@H](C)CO)C[C@H]1C
2.4[16.7 µM]	-14.3	CCCc1cn(CC[C@@H]2CC[C@@H](NC(=O)Cc3cccnc3)[C@H](CO)O2)nn1
-9.5[16.7 µM]	2.2	COc1ccc(S(=O)(=O)N(C)C[C@H]2OCCCC[C@H](C)Oc3ccc(NS(=O)(=O)c4ccc(C)cc4)cc3C(=O)N([C@@H](C)CO)C[C@@H]2C)cc1
-1.6[16.7 µM]	-2.3	O=C(NCC[C@@H]1CC[C@@H](NC(=O)c2cnccn2)[C@@H](CO)O1)Nc1ccc(F)cc1
-11.9[16.7 µM]	7.8	O=C(Nc1ccccc1F)N[C@@H]1CC[C@H](CCNS(=O)(=O)c2ccccc2)O[C@H]1CO
4.4[16.7 µM]	-6.7	Cc1ccc(-c2cnc3c(c2)C(=O)N([C@@H](C)CO)C[C@H](C)[C@H](CN(C)C(=O)c2ccncc2)O3)cc1
-4.4[16.7 µM]	-13.0	C[C@H](CO)N1C[C@H](C)[C@H](CN(C)C(=O)c2ccncc2)Oc2ncc(C#CC3CCCCC3)cc2C1=O
20.8[16.7 µM]	12.0	C[C@@H]1CCCCO[C@@H](CN(C)CC2CCCCC2)[C@@H](C)CN([C@@H](C)CO)C(=O)c2cc(NC(=O)NC3CCCCC3)ccc2O1
12.3[16.7 µM]	0.9	COc1cccc(CNC(=O)C[C@@H]2C=C[C@H](NS(=O)(=O)c3ccccc3OC)[C@H](CO)O2)c1
5.3[16.7 µM]	22.9	Cc1ccc(S(=O)(=O)Nc2ccc3c(c2)CC(=O)N([C@@H](C)CO)C[C@@H](C)[C@H](CN(C)S(=O)(=O)c2cccs2)O3)cc1
-16.3[16.7 µM]	6.1	CCNC(=O)C[C@@H]1CC[C@@H](NC(=O)C2CC2)[C@H](CO)O1
41.6[16.7 µM]	-3.2	C[C@H](CO)N1C[C@H](C)[C@@H](CN(C)Cc2ccc(Cl)c(Cl)c2)Oc2ccc(N(C)C)cc2CC1=O
-17.5[16.7 µM]	-2.4	C[C@@H]1CN([C@@H](C)CO)C(=O)Cc2cc(NC(=O)Nc3ccc4c(c3)OCO4)ccc2O[C@@H]1CN(C)Cc1ccc2c(c1)OCO2
0.0[16.7 µM]	-3.9	COCC(=O)Nc1ccc2c(c1)C(=O)N(C)[C@@H]1CC[C@@H](CC(=O)NCc3ccc(OC)cc3)O[C@@H]1CO2
2.3[16.7 µM]	9.2	C[C@@H]1CN([C@H](C)CO)C(=O)c2cc(C#CC3CCCCC3)cnc2O[C@H]1CN(C)C(=O)Nc1ccccc1
-3.6[16.7 µM]	-9.9	COCC(=O)N(C)C[C@H]1Oc2ncc(C#C[C@H](C)O)cc2C(=O)N([C@H](C)CO)C[C@H]1C
-3.9[16.7 µM]	-3.4	Cc1noc(C)c1NC(=O)NCC[C@@H]1CC[C@@H](NC(=O)c2ccccc2)[C@H](CO)O1
-3.4[16.7 µM]	-7.3	COc1ccc(CNC(=O)C[C@@H]2CC[C@H](NC(=O)CN(C)C)[C@@H](CO)O2)cc1
-6.8[16.7 µM]	-6.5	CN1CCN(C(=O)C[C@@H]2CC[C@@H]3[C@H](COC[C@H](O)CN3C(=O)C3CCOCC3)O2)CC1
-2.0[16.7 µM]	8.9	CCCN(C)C[C@@H]1Oc2cc(-c3ccccc3C)ccc2S(=O)(=O)N([C@H](C)CO)C[C@@H]1C
-35.5[16.7 µM]	-8.7	Cc1noc(C)c1S(=O)(=O)N(C)C[C@H]1OCCCC[C@@H](C)Oc2ccc(NC(=O)NC(C)C)cc2C(=O)N([C@H](C)CO)C[C@@H]1C
-13.8[16.7 µM]	216.2*	COCc1cn(CC[C@H]2CC[C@H](NC(=O)Nc3ccc(OC)cc3)[C@H](CO)O2)nn1
-16.6[16.7 µM]	74.2	CCCN(C)C[C@@H]1Oc2cc(C#CCc3ccccc3)ccc2S(=O)(=O)N([C@H](C)CO)C[C@@H]1C
-15.3[16.7 µM]	-8.0	C[C@H](CO)N1C[C@H](C)[C@H](CN(C)S(C)(=O)=O)OCCCC[C@H](C)Oc2ccc(NS(=O)(=O)c3ccccc3)cc2C1=O
48.1[16.7 µM]	14.8	C[C@H]1CCCCO[C@H](CN(C)C(=O)Nc2ccc(C(F)(F)F)cc2)[C@@H](C)CN([C@@H](C)CO)C(=O)c2cc(NS(C)(=O)=O)ccc2O1
-18.4[16.7 µM]	-9.2	C[C@H]1CN([C@@H](C)CO)C(=O)CCCn2nncc2CO[C@H]1CN(C)Cc1ccc2cccnc2c1
-14.8[16.7 µM]	-4.1	C[C@H]1CN([C@@H](C)CO)C(=O)c2cccc(NS(=O)(=O)c3cccs3)c2O[C@@H]1CN(C)S(=O)(=O)c1ccc(Cl)cc1
0.3[16.7 µM]	-5.4	Cc1ccc(S(=O)(=O)N(C)C[C@H]2Oc3ccc(NC(=O)CCCCCC(=O)Nc4ccccc4N)cc3C(=O)N([C@@H](C)CO)C[C@@H]2C)cc1
-4.1[16.7 µM]	-15.4	N#C[C@H]1N[C@@H](CO)[C@@H]1c1ccc(C2=CCCC2)cc1
7.5[16.7 µM]	0.0	O=C(C[C@H]1CC[C@@H]2[C@H](COC[C@@H](O)CN2Cc2nccs2)O1)NCc1ccccc1Cl
-17.1[16.7 µM]	-18.6	O=C(C[C@@H]1C=C[C@@H](NC(=O)c2ccc(F)cc2)[C@@H](CO)O1)NCCc1ccccc1
13.7[16.7 µM]	0.4	CCNC(=O)C[C@H]1CC[C@@H]2[C@@H](COc3ccc(NC(=O)Nc4ccccc4F)cc3C(=O)N2C)O1
-21.5[16.7 µM]	1.9	C[C@H]1CCCCO[C@@H](CN(C)C(=O)Nc2ccc(F)cc2)[C@@H](C)CN([C@@H](C)CO)C(=O)c2cc(NC(=O)C3CCCCC3)ccc2O1
5.6[16.7 µM]	7.5	C[C@H]1CN([C@@H](C)CO)C(=O)Cc2cc(NC(=O)Nc3ccc4c(c3)OCO4)ccc2O[C@H]1CN(C)Cc1ccccc1
-22.9[16.7 µM]	-22.8	O=C(C[C@@H]1C=C[C@H](NC(=O)C2CCC2)[C@@H](CO)O1)NCCCN1CCOCC1
-8.8[16.7 µM]	-12.3	CC(C)NC(=O)N(C)C[C@H]1Oc2ccc(NC(=O)CCCCCC(=O)Nc3ccccc3N)cc2C(=O)N([C@H](C)CO)C[C@@H]1C

Single records, as listed above:
Record of `CCNC(=O)C[C@H]1CC[C@@H]2[C@@H](COc3ccc(NC(=O)Nc4ccccc4F)cc3C(=O)N2C)O1` : HIV Env fusion: 13.7[16.7 µM]; Yeast UUG start: 0.4
Record of `C[C@H]1CCCCO[C@H](CN(C)C(=O)Nc2ccc(C(F)(F)F)cc2)[C@@H](C)CN([C@@H](C)CO)C(=O)c2cc(NS(C)(=O)=O)ccc2O1` : HIV Env fusion: 48.1[16.7 µM]; Yeast UUG start: 14.8
Record of `O=C(C[C@@H]1C=C[C@H](NC(=O)C2CCC2)[C@@H](CO)O1)NCCCN1CCOCC1` : HIV Env fusion: -22.9[16.7 µM]; Yeast UUG start: -22.8

Additional records
HIV Env fusion	Yeast UUG start	SMILES
-26.5[16.7 µM]	-5.9	CC(C)CC#Cc1ccc2c(c1)O[C@H](CN(C)C(=O)Cc1cccnc1)[C@@H](C)CN([C@H](C)CO)S2(=O)=O
-12.4[16.7 µM]	0.2	CCCNC(=O)C[C@H]1CC[C@H]2[C@@H](COc3ccc(NC(=O)Nc4ccc(C#N)cc4)cc3C(=O)N2C)O1
-17.3[16.7 µM]	2.5	C[C@@H]1CN([C@H](C)CO)S(=O)(=O)c2ccc(C#CC(C)(C)O)cc2O[C@H]1CN(C)C
28.9[16.7 µM]	-19.8	C[C@@H]1CN([C@H](C)CO)C(=O)c2cc(C#CC(C)(C)O)cnc2O[C@H]1CN(C)Cc1ccccn1
-31.8[16.7 µM]	7.3	COCC#Cc1ccc2c(c1)O[C@@H](CN(C)C(=O)NC(C)C)[C@@H](C)CN([C@@H](C)CO)S2(=O)=O
-65.7[16.7 µM]	1.1	C[C@H](CO)N1C[C@H](C)[C@@H](CN(C)C(=O)Nc2ccc3c(c2)OCO3)OCCCC[C@H](C)Oc2ccc(NC(=O)c3ccncc3)cc2C1=O
-4.0[16.7 µM]	-0.5	Cc1ccccc1-c1ccc2c(c1)O[C@@H](CN(C)C)[C@@H](C)CN([C@@H](C)CO)S2(=O)=O
-16.0[16.7 µM]	4.9	C[C@H]1CN([C@@H](C)CO)C(=O)c2cc(C#CCc3ccccc3)cnc2O[C@@H]1CN(C)Cc1cccc(C(=O)O)c1
-10.8[16.7 µM]	3.0	COc1ccc(C#Cc2ccc3c(c2)O[C@H](CN(C)C)[C@@H](C)CN([C@@H](C)CO)S3(=O)=O)cc1
-16.3[16.7 µM]	3.3	C[C@@H]1CN([C@H](C)CO)C(=O)Cc2cc(NS(=O)(=O)c3ccc(Cl)cc3)ccc2O[C@H]1CN(C)C(=O)Nc1ccc(C(F)(F)F)cc1
14.1[16.7 µM]	-11.6	C[C@@H]1CN([C@@H](C)CO)C(=O)c2cc(-c3cncnc3)cnc2O[C@H]1CN(C)CC1CCOCC1
12.1[16.7 µM]	-20.8	COc1ccc(NC(=O)N(C)C[C@@H]2Oc3ccc(NC(=O)C4CC4)cc3CC(=O)N([C@H](C)CO)C[C@H]2C)cc1
-3.2[16.7 µM]	-2.1	COc1ccc(NC(=O)N(C)C[C@H]2OCCCC[C@@H](C)Oc3ccc(NC(=O)Nc4ccccc4)cc3C(=O)N([C@@H](C)CO)C[C@H]2C)cc1
